Sa ugtP lethal: compounds lethal to S. aureus RN4220 ugtP deletion mutant; OD600 growth, 16 h; some inactives read as strong as hits; growth inhibition, % (no concentration beside the values); hit rate 0.54% among 330,000;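 active = z-score under -3 and OD600 up to 0.15 on both plates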;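 also: plate controls were untreated wells for no effect and antibiotic for full effect; wells of about 80 µL received 100 nL stock; the first replicate is given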
Mtb hypoxia inh: reduces hypoxia-regulated biosensor signal in M. tuberculosis | M. tuberculosis hypoxia-regulated fluorescent reporter, fluorescence | fluorescence inhibition, % (no concentration beside the values) | hit rate 0.1% among 300,000 | AID 1159583;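 active = 35 to 45% if threefold the growth effect, above 45% if 1.5-fold the growth effect; inactive = the rest, general growth blockers included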;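 also: wells of about 50 µL received 100 nL stock; 0% = vehicle wells and 100% = reference inhibitor wells; whole bacteria with a GFP reporter of the hypoxia response; strong numbers were not always called active; many hits fall short of the cut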
Bead autofluor: compound fluorescence in toxin protease inhibitor counterscreen; compound autofluorescence counterscreen, microsphere flow cytometry; stronger effect = higher value; hit rate 3.1% among 360,000; fluorescence intensity (concentration not given with the values); AID 624483;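 active = at least 3 SD above the mean of all compounds, about 16000 in these data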;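 also: 100 nL of 1 mM stock went into each well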
BJeLR lethal: kills HRASV12-expressing BJeLR cells. hit rate 0.17% among 300,000. inhibition, % (test concentration not listed). BJeLR (HRASV12) viability, CellTiter-Glo ATP luminescence, 48 h; reference of the scale not given here. AID 1554;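 active = replicate mean above 50%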;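 also: 50 nL library stock added to about 25 µL; numbers are from one replicate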
PrP UTR inh: inhibition of PrP 5' UTR reporter expression. cell-based PrP 5' UTR mRNA reporter, plate reader. inhibition, % (no concentration beside the values). hit rate 0.35% among 340,000. AID 488862;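 active = every replicate at 50% or more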;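 also: 0 = median of the neutral control wells; tested in H4 reporter cells; numbers are from one replicate; inactives centre near -14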
RN4220 kill: kills Staphylococcus aureus RN4220. AID 1259311. hit rate 0.33% among 330,000. S. aureus RN4220 growth, OD600, 16 h. inhibition, % (concentration not given with the values);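 active = z-score of -3 or lower and OD600 up to 0.18 on both plates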;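 also: plate controls were untreated cells for no effect and reference antibiotic for full effect; stock transfer was 100 nL into about 80 µL; one replicate is shown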
Mtb hypoxia inh growth: recorded beside Mtb hypoxia inh, whose call it bears; growth inhibition, %; measured here: M. tuberculosis growth (absorbance);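 0% = vehicle and 100% = reference antibiotic; read after six days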
* = called active by the depositor. No enrichment for hits; any-hit rate near 4%.

`COc1cc(/C=N/O)cc(Br)c1OCc1cccc(Cl)c1` gave Bead autofluor 3110, BJeLR lethal -0.5 and PrP UTR inh -22.3.
CC(C)(C)NC(=O)C(c1ccccc1)N(C(=O)c1csnn1)C1CC1 (configuration not stated) was read as Sa ugtP lethal 8.1, Mtb hypoxia inh 4.4, Bead autofluor 10004, BJeLR lethal -17.9, PrP UTR inh -5.7, RN4220 kill 3.9 and Mtb hypoxia inh growth 0.2.
For CCOC(=O)N/N=C/c1c[nH]c2ccccc12 the results were Bead autofluor 4443, BJeLR lethal 3.6 and PrP UTR inh -24.4.
For CC(C)(C)C(=O)Cn1c(=O)n(CC2CCCO2)c(=O)c2ccccc21 (configuration not stated) the results were Sa ugtP lethal 3.8, Mtb hypoxia inh 2.4, Bead autofluor 10285, BJeLR lethal -2.0, PrP UTR inh -1.6, RN4220 kill 3.3 and Mtb hypoxia inh growth -2.1.
For CCc1nc(NC(C)(C)C)c2cnn(-c3ccccc3)c2n1 the results were Bead autofluor 4285, BJeLR lethal 14.2 and PrP UTR inh -54.8.
For O=C(O)c1ccc(N=c2oc3cc(O)ccc3cc2C(=O)NCc2ccccc2)cc1 the results were Sa ugtP lethal 4.9, Mtb hypoxia inh 9.5, Bead autofluor 3625, BJeLR lethal 2.9, PrP UTR inh -72.1, RN4220 kill -4.0 and Mtb hypoxia inh growth 14.7.
Cc1ccc(NC(=O)Nc2ccc(S(N)(=O)=O)cc2)cc1 was read as Sa ugtP lethal 23.0, Mtb hypoxia inh 7.1, Bead autofluor 2289, BJeLR lethal 5.2, PrP UTR inh -28.3, RN4220 kill 0.8 and Mtb hypoxia inh growth 3.4.
For COc1ccc(Br)cc1CNC(=O)Nc1cccs1 the results were Sa ugtP lethal 87.3*, Mtb hypoxia inh -16.2, Bead autofluor 5876, BJeLR lethal -1.5, PrP UTR inh -9.0, RN4220 kill 91.5* and Mtb hypoxia inh growth 0.8.
Screening COC(=O)[C@H](CCSC)NC(=O)Cn1cnc2c(NCc3ccccc3)ncnc21 returned Sa ugtP lethal -3.0, Mtb hypoxia inh -6.2, Bead autofluor 4002, PrP UTR inh -5.5, RN4220 kill 4.7 and Mtb hypoxia inh growth 1.5.
For Cc1c(C)c2ccc(OCC(=O)NCCN3CCOCC3)c(C)c2oc1=O the results were Sa ugtP lethal 3.1, Mtb hypoxia inh -5.7, Bead autofluor 5804, BJeLR lethal 1.4, PrP UTR inh -13.9, RN4220 kill 8.8 and Mtb hypoxia inh growth -2.2.
For O=C(N/N=C/c1ccc(Br)o1)c1cncc(Br)c1 the results were Bead autofluor 1983, BJeLR lethal -1.2 and PrP UTR inh -14.6.
Screening O=C(COc1ccc2ccc(=O)oc2c1)c1ccccc1 returned Sa ugtP lethal 5.6, Mtb hypoxia inh 18.7, Bead autofluor 5526, BJeLR lethal -0.4, PrP UTR inh -21.0, RN4220 kill 9.8 and Mtb hypoxia inh growth 2.0.
`O=c1c(-c2ccc(Oc3ccccc3)cc2)[n+]([O-])c2ccccc2n1OCc1ccccn1` gave Sa ugtP lethal -3.5, Mtb hypoxia inh -8.7, Bead autofluor 9164, BJeLR lethal 4.0, PrP UTR inh 3.4, RN4220 kill 1.4 and Mtb hypoxia inh growth -6.4.
`CN(CC(=O)NC1CCCCCC1)S(=O)(=O)c1ccc(F)cc1` gave Sa ugtP lethal 1.8, Mtb hypoxia inh 4.5, Bead autofluor 5315, BJeLR lethal 2.5, PrP UTR inh -15.9, RN4220 kill 2.5 and Mtb hypoxia inh growth 12.8.
`O=C(O/N=C/c1ccc2c(c1)OCO2)c1ccc([N+](=O)[O-])cc1` gave Bead autofluor 4449, BJeLR lethal 2.8 and PrP UTR inh -26.4.
Screening COCc1[nH][nH]c(=O)c1C=Nc1ccc(Cl)cc1 returned Sa ugtP lethal 4.0, Mtb hypoxia inh 3.2, Bead autofluor 3252, BJeLR lethal -1.3, PrP UTR inh 7.1, RN4220 kill -2.4 and Mtb hypoxia inh growth 2.1.
For CN(C(=O)Oc1cccc2cccnc12)c1ccccc1 the results were Sa ugtP lethal 9.7, Mtb hypoxia inh 5.6, Bead autofluor 10631, BJeLR lethal 7.4, PrP UTR inh -21.5, RN4220 kill 5.3 and Mtb hypoxia inh growth 8.8.
For COc1ccc(NS(=O)(=O)NC(=O)c2c(C)n(C)c3ccccc23)cc1 the results were Sa ugtP lethal 2.5, Mtb hypoxia inh -0.7, Bead autofluor 3994, BJeLR lethal -13.5, PrP UTR inh 5.8, RN4220 kill 0.8 and Mtb hypoxia inh growth -2.2.
`N#CC1(c2c(O)nc3n(c2=O)CCCS3)CCCCC1` gave Sa ugtP lethal 17.7, Mtb hypoxia inh 3.9, Bead autofluor 5753, BJeLR lethal 3.3, PrP UTR inh -8.2, RN4220 kill 9.8 and Mtb hypoxia inh growth -5.3.
Screening Cc1ccc(N(C)C(=O)C2CCN(S(=O)(=O)c3ccc4c(c3)oc(=O)n4C)CC2)cc1 returned Sa ugtP lethal 6.3, Mtb hypoxia inh 1.3, Bead autofluor 5747, BJeLR lethal 4.2, PrP UTR inh -32.3, RN4220 kill 1.9 and Mtb hypoxia inh growth 2.4.
`CCc1[nH]nc2c1C1(CCN(C(=O)OCc3ccccc3)CC1)C(C#N)=C(N)O2` gave Sa ugtP lethal 3.0, Mtb hypoxia inh 10.9, Bead autofluor 4283, BJeLR lethal -5.4, PrP UTR inh -2.8, RN4220 kill 10.4 and Mtb hypoxia inh growth 6.0.
For COc1ccc(CN2CCSCC2)cc1O the results were Sa ugtP lethal 2.0, Mtb hypoxia inh 6.8, Bead autofluor 3773, BJeLR lethal 3.9, PrP UTR inh -30.2, RN4220 kill 4.5 and Mtb hypoxia inh growth 6.0.
For CCOC(=O)c1c(C)[nH]c(C)c1C(=O)COC(=O)[C@@H](NC(=O)c1ccccc1OCC)C(C)C the results were Sa ugtP lethal -9.9, Mtb hypoxia inh 3.0, Bead autofluor 23944*, BJeLR lethal -1.7, PrP UTR inh 7.7, RN4220 kill 4.3 and Mtb hypoxia inh growth 7.0.
Screening CCOc1ncccc1C(=O)OCC(=O)NC(=O)c1ccccc1 returned Sa ugtP lethal -0.4, Mtb hypoxia inh -0.9, Bead autofluor 8157, PrP UTR inh -17.4, RN4220 kill -1.0 and Mtb hypoxia inh growth 3.9.
Screening Cc1ccc(C)c(NC(=O)c2ncn[nH]2)c1 returned Sa ugtP lethal 4.9, Mtb hypoxia inh 17.8, Bead autofluor 12340, BJeLR lethal -8.1, PrP UTR inh -14.0, RN4220 kill 4.7 and Mtb hypoxia inh growth 4.7.
O=C(NC(Cc1ccccc1)C(=O)O)C1CCN(S(=O)(=O)c2cccc(C(F)(F)F)c2)CC1 (configuration not stated) was read as Sa ugtP lethal 9.5, Mtb hypoxia inh 10.5, Bead autofluor 3872, BJeLR lethal 10.6, PrP UTR inh 3.2, RN4220 kill 1.6 and Mtb hypoxia inh growth 9.0.
Screening NC(=O)CC(NC(=O)Cc1ccc(Cl)cc1)c1ccc(N2CCC(Cc3ccccc3)CC2)c([N+](=O)[O-])c1 (configuration not stated) returned Sa ugtP lethal -17.0, Mtb hypoxia inh 11.1, Bead autofluor 3006, BJeLR lethal -0.9, PrP UTR inh -6.5, RN4220 kill -4.1 and Mtb hypoxia inh growth 12.5.
`CC(C)(C)NC(=O)CSc1nnc(NC(=O)CCn2cnc3ccccc3c2=O)s1` gave Sa ugtP lethal 1.3, Bead autofluor 3212, BJeLR lethal -6.5, PrP UTR inh -7.0 and RN4220 kill -2.7.
Cc1cc(C)n(-c2cc(C(C)(C)C)nc3c(-c4ccc(Cl)cc4)cnn23)n1 was read as Sa ugtP lethal 21.0, Mtb hypoxia inh -1.0, Bead autofluor 12449, BJeLR lethal 3.5, PrP UTR inh -22.0, RN4220 kill -8.5 and Mtb hypoxia inh growth -0.8.
Screening CCOC(=O)C1(Cc2ccc(Cl)cc2)CCN(C(C)CCn2cccn2)CC1 (configuration not stated) returned Sa ugtP lethal 7.0, Mtb hypoxia inh 9.7, Bead autofluor 6148, BJeLR lethal 2.3, PrP UTR inh -30.8, RN4220 kill 5.1 and Mtb hypoxia inh growth 5.4.
Cc1ccc(S(=O)(=O)N(C)CC(=O)OCC(=O)Nc2ccccc2)cc1 was read as Sa ugtP lethal -13.4, Mtb hypoxia inh -5.4, Bead autofluor 4853, BJeLR lethal -4.3, PrP UTR inh -14.5, RN4220 kill 0.4 and Mtb hypoxia inh growth -10.5.
O=C(N/N=C\c1ccc(-c2ccc([N+](=O)[O-])cc2)o1)c1ccc2c(c1)OCO2 was read as Bead autofluor 8711, BJeLR lethal 16.6 and PrP UTR inh -13.9.
For Cc1ccc(C)c(N(CC(=O)NC2CCCC2)C(=O)c2cc3cc4cccc(C)c4nc3s2)c1 the results were Sa ugtP lethal 2.9, Mtb hypoxia inh 19.2, Bead autofluor 9030, BJeLR lethal 3.6, PrP UTR inh -3.9, RN4220 kill 1.6 and Mtb hypoxia inh growth 7.0.
CCOC(=O)c1[nH]c2ccc(F)cc2c1NC(=O)CCN1CCOCC1 was read as Sa ugtP lethal 9.5, Mtb hypoxia inh -1.1, Bead autofluor 2020, BJeLR lethal 4.6, PrP UTR inh -18.6, RN4220 kill 0.8 and Mtb hypoxia inh growth 12.9.
`CC[C@]1(c2ccccc2OC)ON(c2ccccc2C(F)(F)F)C1=O` gave Sa ugtP lethal 14.5, Mtb hypoxia inh -6.3, RN4220 kill 8.6 and Mtb hypoxia inh growth -0.9.
`Cc1ccccc1NC1=C(Cl)C(=O)N(C2CCCCC2)C1=O` gave Sa ugtP lethal 24.3, Mtb hypoxia inh 3.8, Bead autofluor 2501, BJeLR lethal -1.4, PrP UTR inh -32.4, RN4220 kill 14.2 and Mtb hypoxia inh growth 1.5.
`COc1ccc(C(=O)Nc2ccc(C3(C#N)CCCC3)cc2)cc1OC` gave Sa ugtP lethal -2.3, Mtb hypoxia inh -13.6, Bead autofluor 4129, BJeLR lethal 1.0, PrP UTR inh -44.7, RN4220 kill -5.2 and Mtb hypoxia inh growth 8.5.
Screening CC(C)(C)c1cc(-n2ccnc2)n2ncc(-c3ccc(Cl)cc3)c2n1 returned Sa ugtP lethal -14.4, Mtb hypoxia inh -7.9, Bead autofluor 2444, BJeLR lethal 5.3, PrP UTR inh -23.0, RN4220 kill -12.6 and Mtb hypoxia inh growth 1.9.
For COc1ccccc1OCC(=O)NN=C(Cc1ccccc1)Cc1ccccc1 the results were Sa ugtP lethal -5.1, Mtb hypoxia inh -6.1, Bead autofluor 2004, BJeLR lethal -2.7, PrP UTR inh -6.8, RN4220 kill -1.8 and Mtb hypoxia inh growth 11.8.
`Cc1cccc(/C=N/n2c(-c3ccccc3)n[nH]c2=S)c1O` gave Bead autofluor 3095, BJeLR lethal -7.8 and PrP UTR inh -15.3.
`COc1ccc(C=C2C(=O)N=C3SCCN23)cc1` gave Sa ugtP lethal -4.3, Mtb hypoxia inh 3.3, RN4220 kill -2.9 and Mtb hypoxia inh growth 4.0.
Screening CCOc1ccc(NC(=O)C[n+]2ccc(N(C)C)cc2)cc1 returned Sa ugtP lethal 4.9, Mtb hypoxia inh 13.5, Bead autofluor 2444, BJeLR lethal 11.9, PrP UTR inh -8.9, RN4220 kill 4.3 and Mtb hypoxia inh growth 5.4.
`Cc1cccc(NC(=O)CSCC(=O)Nc2cc(Cl)ccc2N2CCN(C)CC2)c1` gave Sa ugtP lethal 2.5, Mtb hypoxia inh -6.0, Bead autofluor 6149, BJeLR lethal -10.9, PrP UTR inh -41.0, RN4220 kill -0.9 and Mtb hypoxia inh growth 10.3.
CCc1ccc(Nc2n[n+](-c3ccccc3)c(-c3ccc(N(CC)CC)cc3)s2)cc1 was read as Sa ugtP lethal 56.5, Bead autofluor 19557*, BJeLR lethal -0.3, PrP UTR inh -16.3 and RN4220 kill 74.6.
O=c1c2ccccc2nc(-c2cccs2)n1-c1ccc2ccccc2c1 was read as Sa ugtP lethal 40.6, Mtb hypoxia inh 10.1, Bead autofluor 10532, BJeLR lethal 5.3, PrP UTR inh -19.9, RN4220 kill -2.4 and Mtb hypoxia inh growth 11.1.

Quoted at random: two compounds from above, in no set order.
O=c1c2ccccc2nc(-c2cccs2)n1-c1ccc2ccccc2c1 was read as Sa ugtP lethal 40.6, Mtb hypoxia inh 10.1, Bead autofluor 10532, BJeLR lethal 5.3, PrP UTR inh -19.9, RN4220 kill -2.4 and Mtb hypoxia inh growth 11.1.
Screening CCOc1ccc(NC(=O)C[n+]2ccc(N(C)C)cc2)cc1 returned Sa ugtP lethal 4.9, Mtb hypoxia inh 13.5, Bead autofluor 2444, BJeLR lethal 11.9, PrP UTR inh -8.9, RN4220 kill 4.3 and Mtb hypoxia inh growth 5.4.
